# Screening data deposited in PubChem BioAssay by several laboratories.
# ALR inh: inhibitors of human ALR sulfhydryl oxidase, primary screen, biochemical, H2O2 detection, HRP-luminol luminescence, single point; purified ALR, DTT oxidation; FAD-linked sulfhydryl oxidase ALR (Homo sapiens), P55789; inhibition, % (no concentration beside the values); AID 485317, 2010; 290,000 tested, 3.8% active;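 active = mean and each replicate at 75% or more; inconclusive = only one of the two met; inactive = neither met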;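 note: stock transfer was 7.5 nL into about 7.5 µL; 0% = neutral wells and 100% = wells with inactivated enzyme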
# Target sequence (P55789 whole entry, looked up): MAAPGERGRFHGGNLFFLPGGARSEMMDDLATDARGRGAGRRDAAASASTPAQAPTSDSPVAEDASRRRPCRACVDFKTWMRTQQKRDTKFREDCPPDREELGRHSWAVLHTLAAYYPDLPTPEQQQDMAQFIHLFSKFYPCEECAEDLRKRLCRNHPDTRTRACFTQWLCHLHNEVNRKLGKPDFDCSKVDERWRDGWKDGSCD
# MLL AF4-AF9 inh: inhibitors of AF4 peptide binding to AF9, primary screen, biochemical, AlphaScreen, biotin-AF4 peptide, FLAG-AF9, single point; Protein AF-9 (Homo sapiens), P42568; 350,000 tested, 0.47% active; inhibition, % at 10 µM;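 active = every replicate reaching a set inhibition limit, whatever the replicate mean, cut at about 25% in these data; inconclusive = mean inhibition reaches that limit but some replicates miss it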;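 note: 0% = plate neutral control median and 100% = total signal loss; the record names both 10 and 1 µM as test concentration; the first replicate is given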
# FGF22 binding: binders of human FGF22 protein, primary screen, FGF22 synaptogenesis inhibitor project, biophysical, thermal shift, single point. Fibroblast growth factor 22 (Homo sapiens), Q9HCT0. recombinant FGF22 thermal shift, SYPRO orange fluorescence; percent of sucrose octasulfate shift, DMSO zero. calls only at 9.99 µM. 340,000 tested, 1.5% active. AID 651658, 2012;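 active = melting point raised past a set limit in the mean and every replicate; inconclusive = no clear call; three in four hits are not shown here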
# Target sequence (Q9HCT0 whole entry, looked up): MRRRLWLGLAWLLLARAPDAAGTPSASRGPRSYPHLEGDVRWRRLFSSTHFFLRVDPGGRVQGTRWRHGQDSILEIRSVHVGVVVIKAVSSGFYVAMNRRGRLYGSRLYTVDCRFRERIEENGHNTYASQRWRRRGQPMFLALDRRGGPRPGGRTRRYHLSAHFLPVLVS
# rRNA inh HTS: reduced GFP signal of wild-type E. coli, primary screen, bacterial rRNA inhibitor project, GFP/RFP fluorescence, OD600, single point; E. coli WT GFP vs humanized-ribosome RFP mutants, 24 h; active compounds read low; DMSO median 0, no signal -100; 350,000 tested, 1.6% active; GFP signal change (wild-type ribosome), % (concentration not given with the values);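 active = significant combined selectivity score with lowered wild-type GFP, culture density cut under 30%, mutant RFP and density less affected; inactive = any of these conditions unmet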; note: one replicate is shown; some compounds called inactive have numbers as strong as hits
# Vif A3G: inhibitors of Vif binding to APOBEC3G peptide, primary screen, biochemical, TR-FRET, GST-Vif 1-94, biotin-A3G peptide, dose response retest (AID 1117319); Virion infectivity factor (Human immunodeficiency virus type 1 group M subtype B (isolate …; 260,000 tested, 0.57% active; TR-FRET GST-Vif / biotin-A3G peptide binding; higher % means a stronger effect; test concentration not given here; strong numbers were not always called active; inhibition, %, or IC50 in µM where a hit was titrated;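 active = above the screen mean plus three standard deviations and confirmed in dose response; inconclusive = results disagree or hit not tested in dose response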;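 note: Vif residues 1-94 fused to GST binding biotinylated APOBEC3G peptide 110-148; 0% = full assay without inhibitor and 100% = GST in place of GST-Vif; retest series ran down from 100 µM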
# HNF4A DNA FP: change in binding of human HNF4A to DNA, primary screen, biochemical, fluorescence polarization, FITC-DNA; 1 h; 360,000 tested, 0.3% active; activity change, % at 10 µM; in the data active = activity change above about 30%, passing the limit was not always enough;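 note: controls were the assay level and a saturating level of protein; the project sought stronger binding though the title names inhibitors; some compounds called inactive have numbers as strong as hits; positive values seem to mean higher polarization but the record does not say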
# Target sequence (P41235 whole entry, looked up): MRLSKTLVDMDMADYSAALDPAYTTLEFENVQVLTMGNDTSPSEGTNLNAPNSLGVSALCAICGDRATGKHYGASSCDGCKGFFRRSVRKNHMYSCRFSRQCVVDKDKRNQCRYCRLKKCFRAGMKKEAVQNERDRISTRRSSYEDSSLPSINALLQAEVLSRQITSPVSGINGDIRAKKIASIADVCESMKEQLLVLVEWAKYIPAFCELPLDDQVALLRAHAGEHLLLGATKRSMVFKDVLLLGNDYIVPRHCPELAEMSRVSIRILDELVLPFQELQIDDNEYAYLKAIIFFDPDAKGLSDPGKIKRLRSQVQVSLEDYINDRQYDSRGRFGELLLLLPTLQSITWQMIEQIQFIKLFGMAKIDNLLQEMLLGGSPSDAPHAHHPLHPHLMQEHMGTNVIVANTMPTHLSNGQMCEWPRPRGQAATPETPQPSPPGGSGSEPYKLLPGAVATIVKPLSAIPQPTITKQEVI
# E coli growth: E. coli growth inhibition, primary screen, OD600; Escherichia coli growth, 23 h; active compounds read low; OD600 absorbance (no concentration beside the values); 330,000 tested, 0.21% active; AID 1053175, 2014;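 active = OD600 absorbance below the run mean of sample wells minus 3.6 SD, in any replicate, cut at about 0.56 in these data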;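 note: stock transfer was 300 nL into about 60 µL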
# rRNA inh HTS OD600: recorded beside rRNA inh HTS, whose call it bears; OD600 change, %; measured here: OD600 growth;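 optical density of the mix in the first replicate; 0 = DMSO median and -100 = no signal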
# rRNA inh HTS RFP: second read-out of rRNA inh HTS, no call of its own (marks repeat the call); RFP signal change, %; measured here: RFP humanized mutant strains;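 first replicate; 0 = DMSO median and -100 = no signal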
# Numbers without * were called inactive; i = inactive; ? = inconclusive; / = not tested or not shown. Only part of the results is shown (hit frequency here may not be typical).
SMILES,ALR inh,MLL AF4-AF9 inh,FGF22 binding,rRNA inh HTS,rRNA inh HTS OD600,rRNA inh HTS RFP,Vif A3G,HNF4A DNA FP,E coli growth
C[C@@H]1CN([C@H](C)CO)C(=O)c2cc(NC(=O)CCC(F)(F)F)ccc2O[C@@H](C)CCCCO[C@H]1CN(C)Cc1ccc(C(F)(F)F)cc1,/,3.1,i,0,-10,5.0,/,/,/
COc1ccccc1N1CCN(C(CNS(C)(=O)=O)c2cccnc2)CC1 (stereo not drawn),51,3.9,i,8,10,-0.1,?,4.3,0.76
CO[C@@H]1CN(C)C(=O)c2ccc(NC(C)=O)cc2OC[C@H](C)N(C(=O)C2CCOCC2)C[C@@H]1C,/,-2.8,i,-1,5,-1.4,/,/,/
COC(=O)c1cc(-c2ccccc2)nc2nc(SC)[nH]c(=O)c12,/,0.8,i,6,7,-4.1,4%,-5.2,0.69
COc1cc(OC)c(S(=O)(=O)N2CCN(C(=O)c3ccco3)CC2)cc1NC(C)=O,-3,-1.0,i,17,10,3.0,2%,1.3,0.66
Cn1c(CSCCOc2ccccc2)n[nH]c1=S,-7,0.3,i,/,/,/,/,5.4,0.66
CC(C)NC(=S)N/N=C/c1sc(N2CCCCC2)nc1-c1cccs1,/,-1.4,i,5,6,7.8,/,41*,/
Cc1onc(-c2c(F)cccc2Cl)c1C(=O)OCC(=O)Nc1c(C)n(C)n(-c2ccccc2)c1=O,0,/,/,/,/,/,2%,4.8,0.69
CO[C@@H]1CN(C)C(=O)c2ccc(NC(=O)C3CC3)cc2OC[C@H](C)N(C(=O)c2ccccc2F)C[C@H]1C,/,-1.7,i,0,-1,-1.6,/,/,/
C[C@H](NC(=O)C[C@@H]1CC[C@H]2[C@@H](COC[C@H](O)CN2C(=O)Nc2ccccc2)O1)c1ccccc1,/,-3.1,i,1,5,-2.3,/,/,/
Cc1cnc(C(=O)OCC(=O)NCCCc2ccccc2)cn1,3,-1.0,i,3,5,-1.1,/,1.0,0.69
COCC(=O)N(C)C[C@H]1Oc2ncc(C3=CCCC3)cc2C(=O)N([C@@H](C)CO)C[C@H]1C,/,-1.9,i,4,-7,-2.5,/,/,/
CC(C)(C)N1CSC(=S)N(Cc2ccccc2)C1,-2,-1.8,i,21,21,1.3,-17%,-0.4,0.64
C[C@@H]1CN([C@H](C)CO)C(=O)Cc2cc(NC(=O)Nc3ccccc3)ccc2O[C@H]1CN(C)C(=O)Nc1ccccc1,/,-15,i,1,6,-0.6,/,/,/
COc1ccc(NC(=O)CSc2ccc3nnc(-c4ccccn4)n3n2)cc1OC,-5,-0.6,i,6,6,-0.9,/,3.7,0.69
S=C(Nc1ccc2snnc2c1)N1CCN(c2ccccn2)CC1,-9,/,/,/,/,/,?,-0.2,0.76
Nc1nc2c(ncn2[C@@H]2O[C@H](CNCc3ccc(Oc4cc(-n5cccn5)ncn4)cc3)[C@@H](O)[C@H]2O)c(=O)[nH]1,/,-2.9,i,/,/,/,/,5.0,/
Cn1c(NC(=O)c2ccc(F)cc2)nc2ccccc21,-3,-1.8,i,17,9,1.4,-3%,1.1,0.7
C[C@@]12C(=O)N(CC3CC3)CC(=O)N1[C@H](C1CC1)[C@@H]1C(=O)N(c3ccccc3)C(=O)[C@@H]12,-1,3.0,i,/,/,/,/,0.2,0.74
COc1ccc(CN(C)C[C@@H]2Oc3ccc(NS(=O)(=O)c4ccc(Cl)cc4)cc3CC(=O)N([C@H](C)CO)C[C@@H]2C)cc1,/,4.2,i,0,-24,6.4,/,/,/
CC1(C)COC2(OC1)C(=O)Nc1ccccc12,-10,1.4,i,3,-2,-1.6,2%,-2.7,0.63
CCCN(C)C[C@H]1Oc2cc(C#Cc3ccccc3F)ccc2S(=O)(=O)N([C@H](C)CO)C[C@@H]1C,/,0.2,i,-8,-15,11,/,/,/
O=c1cc(N2CCCC2)c2ccccc2o1,2,0.1,i,8,-18,0.3,3%,2.4,0.7
CS(=O)(=O)N1[C@H](CO)[C@@H](c2ccccc2)C12CN(C(=O)c1ccccc1F)C2,/,2.1,i,5,20,3.7,/,/,/
O=C(CN1CCN(C(=O)c2c(F)cccc2F)CC1)Nc1ccccc1C(F)(F)F,-2,0.0,i,7,16,1.4,-4%,1.1,0.68
# Continuation:
SMILES,ALR inh,MLL AF4-AF9 inh,FGF22 binding,rRNA inh HTS,rRNA inh HTS OD600,rRNA inh HTS RFP,Vif A3G,HNF4A DNA FP,E coli growth
CCCCN1CC(=O)N2[C@H](c3ccc(Cl)cc3)[C@@H]3C(=O)N(CC)C(=O)[C@@H]3[C@]2(C)C1=O,/,5.5,i,4,0,-6.6,/,-1.9,/
O=C(Nc1cc(Sc2nc3ccccc3s2)cc([N+](=O)[O-])c1)c1ccccc1,-3,/,/,/,/,/,/,-0.2,0.79
c1ccc(C[C@H]2CNCCN2CCc2cccc3ccccc23)cc1,11,14,i,-16,-17,-7.3,/,2.3,/
Brc1ccccc1-c1cnco1,1,-1.6,i,9,24,7.1,6%,-13,0.68
O=C1CC2(CCCCC2)CC(=O)N1CCc1ccccc1,/,0.4,i,-46,-53,-5.8,-5%,-2.1,0.74
COc1cc(C(=O)NCCC(=O)NCCCN2CCCCC2)cc(OC)c1OC,0,/,/,8,14,-1.4,-2%,-0.3,0.69
CCCS(=O)(=O)NC(=O)C1(C)CCCN(C(=O)c2ccc(C(F)(F)F)cc2)C1 (stereo not drawn),/,0.6,i,4,-21,2.4,/,-7.1,/
COCCCNC(=O)CNC(=O)c1nn(-c2ccc(OC)cc2)c(=O)c2ccccc12,-13,-0.2,i,8,10,-0.7,-4%,-5.3,0.64
COc1cc(C=C2Cc3ccccc3C2=O)cc(OC)c1OC,/,1.8,i,15,19,3.2,/,-0.3,/
CCCCN(C=O)c1c(CC)nc2ccc(C(=O)N3CCN(C(C)=O)CC3)cn12,/,-6.9,i,6,11,-3.3,/,3.3,/
CC1CCCN(S(=O)(=O)c2ccc(S(=O)(=O)N3CCCC3)cc2)C1 (stereo not drawn),/,-7.8,i,6,10,0.0,-3%,-2.0,0.71
Cc1nc(N/N=C\c2ccc3c(c2)OCO3)sc1C,7,3.4,i,-5,-2,-2.4,/,4.7,/
CC(C)c1cc(=O)n2[nH]c(SCc3ccccc3)nc2n1,-2,-4.4,i,-15,-4,-6.4,1%,-2.5,0.68
C[C@H]1CN([C@@H](C)CO)S(=O)(=O)c2ccc(-c3ccccc3)cc2O[C@H]1CN(C)S(=O)(=O)c1ccccc1F,/,-2.0,i,0,4,1.4,/,/,/
CCOC(=O)N1CCN(S(=O)(=O)c2c(C)nn(C)c2C)CC1,-1,/,/,/,/,/,4%,3.8,0.76
CCOc1cc(N2CCOCC2)c(OCC)cc1NC(=O)CSc1ncn[nH]1,10,-0.1,i,26,7,2.0,12µM*,2.6,0.7
CC1(C)C2CCC(C2)C1(C)NC(=O)CN1CCCC1 (stereo not drawn),-5,-13,i,12,3,5.6,-12%,-2.8,0.64
COc1ccc(C2C3=C(CCCC3=O)Nc3nc(-c4cc(OC)c(OC)c(OC)c4)nn32)cc1OC (stereo not drawn),-3,/,/,/,/,/,3%,2.0,0.67
CC(=O)c1cccc(NC(=O)c2cccc(S(=O)(=O)N3CCOCC3)c2)c1,/,-1.5,i,-4,-10,-4.5,/,5.8,0.67
C[C@H]1CCCCO[C@@H](CN(C)C(=O)Nc2ccc(C(F)(F)F)cc2)[C@@H](C)CN([C@@H](C)CO)C(=O)c2cc(NC(=O)NC3CCCCC3)ccc2O1,/,-4.0,i,3,3,-6.1,/,/,/
S=c1[nH]nc(-c2ccccc2)n1/N=C/c1cccc(Cl)c1,/,-3.7,i,-4,-4,1.6,-3%,0.1,/
COc1cc(S(=O)(=O)N2CCOCC2)ccc1NC(=O)COC(=O)c1ccccn1,-5,/,/,/,/,/,3%,0.0,0.76
CC(C)OC(=O)c1nn2c(C(F)(F)F)cc(-c3ccco3)nc2c1Cl,-6,/,/,/,/,/,6%,65*,0.74
CN(C)CCN1C(=O)c2oc3ccccc3c(=O)c2C1c1cccc(Br)c1 (stereo not drawn),2,/,/,/,/,/,6%,0.7,0.7
Cc1ccc(NC(=S)Nc2ccc3[nH]c(=O)[nH]c3c2)cc1,99*,-6.1,i,5,4,-8.9,2%,-0.7,0.7
# (next part)
SMILES,ALR inh,MLL AF4-AF9 inh,FGF22 binding,rRNA inh HTS,rRNA inh HTS OD600,rRNA inh HTS RFP,Vif A3G,HNF4A DNA FP,E coli growth
C[C@H](CO)N1C[C@H](C)[C@@H](CN(C)C(=O)NC2CCCCC2)Oc2ccc(NS(=O)(=O)c3ccc(Cl)cc3)cc2C1=O,/,-0.4,i,-1,4,1.1,/,/,/
Cc1cc(C(=O)CS(=O)(=O)c2ccc(Cl)cc2)cc(C)c1O,/,-0.4,i,-3,1,7.8,-5%,-4.3,0.68
CC(=O)Nc1ccc(S(=O)(=O)NCC(=O)OCC(=O)N2CC(C)OC(C)C2)cc1 (stereo not drawn),-3,3.4,i,5,2,0.1,/,4.4,0.68
Cc1cc(C)c(NC(=O)CSc2nnc(-c3ccccn3)n2N)c(Cl)c1,0,0.1,i,8,7,-2.1,-9%,-5.9,0.69
CCCCNC(=O)C1(C)CCN1Cc1cc(C)ccc1C (stereo not drawn),/,-0.4,i,1,-8,-1.3,/,1.2,/
CCOC(=O)c1nc2cc3n(c(C)c-2c1C)C(C)C(CC)=C3C (stereo not drawn),/,/,/,/,/,/,-2%,-0.6,0.67
COc1cc(C(=O)Nc2sc3c(c2C(=O)O)CCC(C)C3)cc(OC)c1OC (stereo not drawn),/,0.0,i,-2,-2,1.9,/,-0.3,0.68
Cc1ccc(C2CC(=O)NC(SCCC(C)C)=C2C#N)cc1 (stereo not drawn),-9,8.3,i,-9,-7,-8.4,1%,-3.1,0.73
CCCCC(Nc1ncnc2ccccc12)C(=O)O (stereo not drawn),20,/,/,/,/,/,-1%,-4.9,0.7
Cc1cc(NS(=O)(=O)Cc2ccccc2)cc(C)c1OCC(=O)N1CCOCC1,-1,/,/,/,/,/,-1%,1.9,0.74
COc1ccc(NC(=O)N[C@H]2C=C[C@@H](CC(=O)NCc3ccccn3)O[C@@H]2CO)cc1,/,-1.3,i,3,9,-4.3,/,/,/
C[C@@H]1CCCCO[C@@H](CN(C)Cc2ccc(C(=O)O)cc2)[C@H](C)CN([C@@H](C)CO)C(=O)c2cc(NC(=O)Nc3cccc4ccccc34)ccc2O1,/,-8.5,i,-4,-4,1.3,/,/,/
COc1ccc(Cl)cc1NC(=O)CN(C)CC(=O)Nc1ccccc1-c1ccccc1,/,4.6,i,-24*,-15*,-0.5*,1%,-0.3,0.69

# Three compounds picked at random from those above, as already listed:
SMILES,ALR inh,MLL AF4-AF9 inh,FGF22 binding,rRNA inh HTS,rRNA inh HTS OD600,rRNA inh HTS RFP,Vif A3G,HNF4A DNA FP,E coli growth
COc1cc(C(=O)Nc2sc3c(c2C(=O)O)CCC(C)C3)cc(OC)c1OC (stereo not drawn),/,0.0,i,-2,-2,1.9,/,-0.3,0.68
Cc1ccc(C2CC(=O)NC(SCCC(C)C)=C2C#N)cc1 (stereo not drawn),-9,8.3,i,-9,-7,-8.4,1%,-3.1,0.73
Cc1cc(C(=O)CS(=O)(=O)c2ccc(Cl)cc2)cc(C)c1O,/,-0.4,i,-3,1,7.8,-5%,-4.3,0.68
